Screening results: PubChem, several laboratories
CBX7 inh: CBX7 inhibition, primary AlphaScreen | AlphaScreen His6-CBX7 / biotin-H3K27me3 peptide binding; active compounds read low | AID 1224903 | normalised signal (fraction of DMSO) (concentration not given with the values) | hit rate 1.1% among 66,000; in the data active = normalised signal below about 0.5;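 also: 100 nL library stock added to about 20 µL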
Target sequence (O95931 whole entry, looked up): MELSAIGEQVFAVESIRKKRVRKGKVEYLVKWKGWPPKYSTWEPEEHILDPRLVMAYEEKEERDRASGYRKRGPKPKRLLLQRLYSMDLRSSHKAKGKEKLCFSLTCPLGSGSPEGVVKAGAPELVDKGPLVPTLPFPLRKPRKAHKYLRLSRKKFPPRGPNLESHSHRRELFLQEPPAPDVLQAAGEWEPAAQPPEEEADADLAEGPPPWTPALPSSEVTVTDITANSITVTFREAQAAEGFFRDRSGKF
CBX7 inh z-score: second read-out of CBX7 inh, no call of its own (marks repeat the call); z-score; measured here: z-score of CBX7 signal; some inactives read as strong as hits; reference of the scale not given here;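 same signal on another scale; lower means less binding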
Starred values were filed as active, the others as inactive. A portion of the library. The share of hits here may be higher or lower than overall.

No.	SMILES	CBX7 inh	CBX7 inh z-score
1	COC(=O)CNC(c1ccccc1Cl)c1cc(Br)ccc1NC(=O)c1ccccc1 (configuration not stated)	1	0.065
2	Nc1nonc1-n1nnc2c1CCCC2=O	0.9	-2.2
3	COc1ccc(C2(CC#N)CCOC(C)(C)C2)cc1 (configuration not stated)	0.99	-0.15
4	Cc1ccc(C(=O)c2oc3ccccc3c2NC(=O)c2ccc(Cl)cc2)cc1	1.2	1
5	COc1cccc(CNC(=O)C2CCCN(c3nn4c(=O)cc(C)nc4s3)C2)c1OC (configuration not stated)	1.1	0.82
6	Cc1nc2c(-c3ccccc3)c(C)[nH]n2c(=O)c1Cc1ccccc1	1	0.24
7	COC(CNC(=O)C1CCN(Cc2nc(-c3ccccc3C)oc2C)CC1)OC	1.2	2.1
8	CCCCc1ccc(-c2nc(Nc3cc(OC)cc(OC)c3)c3ccccc3n2)cc1	1.1	1.1
9	c1cnc2sc(N3CCN(Cc4ccc5c(c4)OCO5)CC3)nc2c1	1	0.56
10	FC(F)(F)c1cccc(N2CCN(c3nnc(Cc4ccncc4)c4ccccc34)CC2)c1	0.99	-0.36
11	CCc1c(C)c(C#N)c2nc3ccccc3n2c1Nc1ccccn1	1.4	3.1
12	CCOc1ccccc1NC(=O)c1cn(-c2ccc(Cl)cc2)c(=O)c2ccccc12	1.1	1.3
13	CCOc1ccccc1N(C)C(=O)CCc1nc(-c2ccccc2F)no1	1	-0.082
14	Cc1c(C(=O)Nc2c(C(=O)c3ccccc3)oc3ccccc23)oc2ccccc12	1.4	2
15	CCOC(=O)C1CCCN(c2cc(C)nc3c(-c4ccc(Cl)cc4)c(C)nn23)C1 (configuration not stated)	1.9	17

Next part
No.	SMILES	CBX7 inh	CBX7 inh z-score
16	CCc1ccccc1NC(=O)C1CCN(c2nn3c(=O)cc(C)nc3s2)CC1	0.97	-1.5
17	COCc1cc(C)n(CC(=O)Nc2ccc(Cl)cc2Cl)c(=O)c1C#N	1	0.03
18	O=C(NC1CCCCCC1)c1ccc2c(=O)n3c(nc2c1)CCCCC3	1.1	0.076
19	Cc1oc(-c2cccc(Cl)c2)nc1CN1CCC(C(=O)NC2CCCCC2C)CC1 (configuration not stated)	1.2	1.3
20	CC1(C)CC(=O)C2=C(C1)NC(=O)CC2c1ccc(C(C)(C)C)cc1 (configuration not stated)	1	0.097
21	NC(=O)COc1ccc(-c2noc(COc3ccc(Br)cc3)n2)cc1	1.2	3.1
22	CC1CCCCN1S(=O)(=O)c1ccc2[nH]c(=O)cc(C(=O)NCCN3CCCC3)c2c1 (configuration not stated)	0.94	-1.8
23	CCn1c(SCC(=O)Nc2nccs2)nnc1-c1c[nH]c2ccccc12	1.1	0.67
24	COc1ccc(C2Nc3ccc4ncccc4c3C3=C2C(=O)CCC3)cc1OC (configuration not stated)	1	0.78
25	O=c1cc(N2CCc3ccccc32)[nH]c(=O)n1-c1ccc(Br)cc1	0.98	-0.36
26	COc1ccc(C2=NOC(C(=O)NCC3CCCO3)C2)cc1 (configuration not stated)	1	0.064
27	COc1cc(C)nc(OCCNS(=O)(=O)c2cc(C)ccc2C)n1	1	0.079
28	O=C(Nc1nc(-c2ccncc2)cs1)c1ccc(S(=O)(=O)N2CCCc3ccccc32)cc1	0.86	-3.4
29	COc1ccc(CCNC(=O)CCc2c(C)nc3c(-c4ccc(F)cc4)c(C)nn3c2C)cc1OC	1.1	2.8
30	O=C(c1c[nH]c2ccc(S(=O)(=O)Nc3ccc4c(c3)OCCO4)cc2c1=O)N1CCCCCC1	0.89	-1.5

Next part:
No.	SMILES	CBX7 inh	CBX7 inh z-score
31	CCN(CC)S(=O)(=O)c1ccc2c(c1)N(CC(=O)N(Cc1ccccc1)C(C)C)C(=O)CS2	1	0.38
32	CCOC(=O)c1sc2ncn(CC(=O)Nc3ccc(OC)cc3OC)c(=O)c2c1C	0.96	-1.1
33	COc1ccc(OC)c(NC(=O)c2c(-c3c(F)cccc3Cl)noc2C)c1	0.91	-1
34	Cc1cc(NC(=O)NC(=O)c2ccc(C(F)(F)F)cc2)n[nH]1	1.2	1.8
35	C=CCN1C(=O)N(c2ccccc2)C(=O)C1CC(=O)Nc1ccc(C(=O)OCC)cc1 (configuration not stated)	1	0.096
36	CCC1=Nc2cc(C(=O)NCCCc3ccccc3)ccc2Sc2ccc(Br)cc21	0.98	-1
37	COc1ccc(C(=O)CSc2nncn2C)cc1	0.98	-0.92
38	COc1ccc(CCNC(=O)c2cc(Sc3ccc(C)cc3)nc3ccccc23)cc1OC	0.94	-1.7
39	CC(NC(=O)C(=O)NCc1ccccn1)C(c1cccs1)N1CCN(Cc2ccccc2)CC1 (configuration not stated)	1	0.27
40	Cc1ccc(C(=O)Nc2ccc(-c3nc4cc(C)cc(C)c4o3)cc2)cc1	1.2	1.7
41	CC(C)NC(=O)CCn1nc(-c2ccc(Cl)cc2)ccc1=O	1	0.61
42	COc1cccc(CNS(=O)(=O)c2cn(C)cn2)c1	1	0.32
43	CCOC(CNC(=O)c1ccc2c(c1)ncn2-c1ccc(C(C)C)cc1)OCC	0.8	-2.5
44	Cc1ccc(-n2cc(C(=O)N3CCN(Cc4ccccc4)CC3)c3ccccc3c2=O)cc1C	0.77	-4.9
45	Cc1ccc(-c2n[nH]c3c2C(c2ccc(C(C)C)cc2)N(c2ccc(F)cc2)C3=O)cc1 (configuration not stated)	0.98	-0.036

Additional results
No.	SMILES	CBX7 inh	CBX7 inh z-score
46	Cc1ccc(N(CC(=O)Nc2ccc(Br)cc2)S(=O)(=O)c2c(C)noc2C)cc1	0.98	-0.17
47	O=C(C1C2C=CC3(CN(Cc4ccccc4Cl)C(=O)C13)O2)N1CCCC1 (configuration not stated)	0.98	-0.69
48	Cc1cc(C(=O)Nc2nnc(-c3ccccc3)s2)no1	1	1.4
49	Cc1c(C(=O)Nc2ccc(-c3nc4ccccc4o3)cc2)oc2ccccc12	1.1	1.3
50	CCc1ccccc1NC(=O)c1cnn(-c2ccc(C)cc2)c1C1CCNCC1	1.3	3
51	COc1cc(/C=C/c2cc(C(F)(F)F)[nH]c(=O)n2)cc(Br)c1O	0.81	-2.3
52	Cn1nc(-c2ccccc2F)c2cc(C(=O)Nc3ccc(Cl)cc3)sc21	1	0.019
53	COc1ccc(C(=O)CSc2nc3nc(C)cc(C)c3c(=O)[nH]2)cc1	1	0.59
54	Cc1ccccc1-c1nnc(NC(=O)c2ccc(Cl)c(Cl)c2)s1	1	0.67
55	CCc1ccc2c(c1)c(=O)c(S(=O)(=O)c1ccc(F)cc1)cn2CC(=O)Nc1ccc(OC)cc1	0.99	-0.45
56	Cc1cccc(-c2nc(Nc3ccc(C)cc3C)c3ccccc3n2)c1	1.5	11
57	COc1ccc(CNC(=O)C2CCCN(Cc3nc(-c4cccc(C)c4)oc3C)C2)cc1 (configuration not stated)	0.91	-2
58	CCOC(=O)C1CCN(C(=O)c2cn(CC(C)C)c(=O)c3cc(OC)c(OC)cc23)CC1	1.2	1.6
59	Cc1cc(C)cc(NC(=O)CC2Oc3ccccc3NC2=O)c1 (configuration not stated)	1.3	1.6
60	Cc1cc(Nc2ccc(Cl)cc2)n2nc(C)nc2n1	0.92	-1.7

The listing continues:
No.	SMILES	CBX7 inh	CBX7 inh z-score
61	COC(=O)c1ccc2nc(-c3ccc(Cl)cc3)c(-c3ccc(Cl)cc3)nc2c1	1.1	0.69
62	COc1ccccc1OCC(O)Cn1c(=N)n(CCN2CCOCC2)c2ccccc21 (configuration not stated)	0.99	-0.13
63	CC(C)c1ccc(NC(=O)c2cc3c(-c4ccccc4F)nn(C)c3s2)cc1	1.1	1.7
64	Cn1c(C(=O)N2CCCC(C(=O)N3CCC(Cc4ccccc4)CC3)C2)cc2sccc21 (configuration not stated)	0.72	-8.1
65	O=C(CC(CN1Cc2ccccc2C1)c1ccccc1)Nc1c2c(nc3c1CCC3)CCCC2 (configuration not stated)	1.1	1.6
66	Cc1cccc(Nc2c(-c3ccccc3)nc3ncccn23)c1C	1	0.65
67	CCCNC(=O)Cn1cnc2sc(C(=O)N3CCCC(C)C3)c(C)c2c1=O (configuration not stated)	1.1	1.4
68	O=C(CN1C(=O)CSc2ccc(S(=O)(=O)N3CCOCC3)cc21)NCCCN1CCCC1=O	1	1.4
69	CN(C(=O)Cc1c(C(=O)O)n(C)c2ccccc12)c1cccc(Cl)c1	0.97	-0.59
70	CCOc1ccc(-c2cn(-c3cc(C)ccc3C)c(=O)[nH]2)cc1Cl	0.87	-0.17
71	COc1ccccc1Nc1cc(C)nc2ccc(Cl)cc12	0.92	-0.089
72	CN(C(=O)c1cc2c(s1)-c1ccccc1OC2)c1ccc(Br)cc1	1	1.4
73	O=C(c1ccc2c(c1)N(Cc1ccc(F)cc1Cl)C(=O)CS2)N1CCC2(CC1)OCCO2	1.2	2.4
74	Nc1nc(-c2ccc(O)c(O)c2)cs1	1.1	0.7
75	Cc1nnc(NC(=O)c2ccc(S(=O)(=O)N(C)c3ccccc3)cc2)o1	0.78	-5.5

Additional structures:
No.	SMILES	CBX7 inh	CBX7 inh z-score
76	Cc1nn(-c2nc3ccccc3[nH]2)c(=O)c2ccccc12	1.4	0.88
77	O=C(NC1CCCCC1)c1cccc2c1C(=O)N(C1CCCCC1)C2	1	1.6
78	CC(C)(C)OC(=O)N1CCC(c2c(C(=O)Nc3ccccc3F)cnn2-c2ccc(F)cc2)CC1	0.99	-0.21
79	CCOC(=O)c1cc(-c2ccc(OC)cc2)n(CCC(=O)N2CCC(c3ccccc3)CC2)c1C	0.77	-5.3
80	CCOC(=O)c1ccc(NC(=O)c2nccnc2C(=O)O)cc1	0.8	-2.6
81	COc1cc(OC)cc(-c2cc3nc(C)c(CCC(=O)Nc4nc(C)cs4)c(C)n3n2)c1	0.99	-0.27
82	NS(=O)(=O)c1ccc(CCNC(=O)c2ccc(Cn3c(=O)[nH]c4ccccc4c3=O)cc2)cc1	1	0.14
83	COc1ccc(-c2noc(COc3cc(C)ccc3C)n2)cc1	1.7	7.1
84	CCCSc1nnc(Cc2cc(=O)[nH]c(=O)[nH]2)n1-c1ccc(OC)cc1	0.99	-0.21
85	CCN(C(=O)C1CCCN1S(=O)(=O)c1ccc2c(c1)n(C)c(=O)c(=O)n2C)c1ccccc1 (configuration not stated)	1.2	2.2
86	O=C(C1CC1)N1CCc2cc(S(=O)(=O)NCc3ccccc3Cl)ccc21	1	0.11
87	O=C(Nc1ccc2nc3n(c(=O)c2c1)CCCCC3)c1ccc(F)cc1	1	0.27
88	COc1c(Cl)ccc(Cl)c1C(=O)Nc1ccc(C)cc1	1.1	0.19
89	Cc1ccc(S(=O)(=O)N2CC(=O)Nc3ccc(Br)cc3C2c2ccccc2)cc1 (configuration not stated)	1	0.29
90	COc1cccc(NC2(c3nnnn3-c3ccc(C)cc3)CCCC2)c1	1	0.17

Structures from the list above with a COOH group:
No.	SMILES	CBX7 inh	CBX7 inh z-score
69	CN(C(=O)Cc1c(C(=O)O)n(C)c2ccccc12)c1cccc(Cl)c1	0.97	-0.59
80	CCOC(=O)c1ccc(NC(=O)c2nccnc2C(=O)O)cc1	0.8	-2.6

The list goes on.
No.	SMILES	CBX7 inh	CBX7 inh z-score
91	COc1ccc2nc(NC(=O)c3ccc(S(=O)(=O)N4CCc5ccccc5C4)cc3)sc2c1	1.1	0.69
92	CCOCCCNC(=O)c1cc(Nc2cc(C)cc(C)c2)nc2ccccc12	1.3	7.1
93	CCc1nc2ccccc2c(N)c1C	0.87	-2
94	NC(=O)Cn1c(=O)n(CCCCCC(=O)NCc2ccc3c(c2)OCO3)c(=O)c2sccc21	1	0.63
95	COc1cccc(CN2CCN(Cc3ccccc3Cl)CC2)c1OC	0.97	-0.46
96	COc1ccc(-c2cc(C(=O)N3CCN(c4ccccc4)CC3)no2)cc1OC	1	0.47
97	COc1ccc(-c2nc(N3CCN(C)CC3)[nH]c(=O)c2C#N)cc1	0.99	-0.28
98	O=C(CSc1nc2ccccc2o1)Nc1ccccc1Br	1.1	2
99	CCCCCC(=O)Nc1cc(-c2nc3ncccc3o2)ccc1Cl	1.1	0.14
100	O=C(Nc1ccc(-c2csc(Nc3ccccc3)n2)cc1)c1ccccc1	0.88	-0.21
101	CC(NC(=O)C1(NS(=O)(=O)c2cccc3cccnc23)CCCCC1)c1ccccc1 (configuration not stated)	1	-0.021
102	CCCCNC(=O)c1cc2n(n1)C(C(F)(F)F)CC(c1ccc3c(c1)OCO3)N2 (configuration not stated)	0.92	-1.3
103	O=C(Nc1ccc(Cl)cc1)Nc1nc(-c2cccc3ccccc23)cs1	0.71	-6.9
104	CCOC(=O)c1ccc(N2C(=O)CC(NCCc3ccc(F)cc3)C2=O)cc1 (configuration not stated)	1	1.1
105	Cc1cccn2cc(-c3cccc(NS(=O)(=O)c4ccc(Cl)cc4)c3)nc12	0.94	-0.67

Reprinted at random: three entries already listed
No.	SMILES	CBX7 inh	CBX7 inh z-score
10	FC(F)(F)c1cccc(N2CCN(c3nnc(Cc4ccncc4)c4ccccc34)CC2)c1	0.99	-0.36
74	Nc1nc(-c2ccc(O)c(O)c2)cs1	1.1	0.7
19	Cc1oc(-c2cccc(Cl)c2)nc1CN1CCC(C(=O)NC2CCCCC2C)CC1 (configuration not stated)	1.2	1.3

Continued:
No.	SMILES	CBX7 inh	CBX7 inh z-score
106	Cc1sc2ncn(CC(=O)NCCN3CCOCC3)c(=O)c2c1S(=O)(=O)N1CCC(C)CC1	1.2	2.5
107	Cc1ccccc1Nc1c(-c2ccccc2)nc2cnccn12	1.2	2.2
108	O=C(O)CCc1ccc(-c2cccs2)n1-c1ccccc1C(F)(F)F	0.91	-1.6
109	CC1CCCC(C)N1C(=O)c1cc2n(n1)C(C(F)(F)F)CC(c1ccc(Cl)cc1)N2 (configuration not stated)	1	0.066
110	CCOc1ccc(C2C(=O)N(C3CCCCCC3)CC(=O)N2Cc2ccc(F)cc2)cc1OC (configuration not stated)	0.98	-0.18
111	O=C(COc1ccc(C2CCCCC2)cc1)Nc1ccc(-c2nc3ncccc3o2)cc1	1	1.5

Rewritten screen by screen: part of the list above
110	CCOc1ccc(C2C(=O)N(C3CCCCCC3)CC(=O)N2Cc2ccc(F)cc2)cc1OC (configuration not stated)
108	O=C(O)CCc1ccc(-c2cccs2)n1-c1ccccc1C(F)(F)F
screen / no. | 110 | 108
CBX7 inh | 0.98 | 0.91
CBX7 inh z-score | -0.18 | -1.6
